FGF22 binding: binders of recombinant human FGF22 by thermal shift. AID 651658. SYPRO orange fluorescence; percent of sucrose octasulfate shift, DMSO zero. Q9HCT0. hit rate 1.5% among 340,000. calls only at 9.99 µM;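 active means melting point raised past a set limit in the mean and every replicate; three in four hits are not shown here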
Target sequence (Q9HCT0 whole entry, looked up): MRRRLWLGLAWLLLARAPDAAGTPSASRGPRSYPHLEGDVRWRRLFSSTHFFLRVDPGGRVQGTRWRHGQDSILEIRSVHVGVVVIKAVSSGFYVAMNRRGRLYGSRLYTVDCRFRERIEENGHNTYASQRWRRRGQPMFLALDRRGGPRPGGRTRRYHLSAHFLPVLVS
MLL AF4-AF9 inh: blocks AF4 peptide binding to human AF9; P42568; AlphaScreen, biotin-AF4 peptide binding to FLAG-AF9; inhibition, % at 10 µM; hit rate 0.47% among 350,000;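 active means every replicate reaching a set inhibition limit, whatever the replicate mean, cut at about 25% in these data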;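 further: 0% = plate neutral control median and 100% = total signal loss; the record names both 10 and 1 µM as test concentration; the first replicate is given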
Target sequence (P42568 whole entry, looked up): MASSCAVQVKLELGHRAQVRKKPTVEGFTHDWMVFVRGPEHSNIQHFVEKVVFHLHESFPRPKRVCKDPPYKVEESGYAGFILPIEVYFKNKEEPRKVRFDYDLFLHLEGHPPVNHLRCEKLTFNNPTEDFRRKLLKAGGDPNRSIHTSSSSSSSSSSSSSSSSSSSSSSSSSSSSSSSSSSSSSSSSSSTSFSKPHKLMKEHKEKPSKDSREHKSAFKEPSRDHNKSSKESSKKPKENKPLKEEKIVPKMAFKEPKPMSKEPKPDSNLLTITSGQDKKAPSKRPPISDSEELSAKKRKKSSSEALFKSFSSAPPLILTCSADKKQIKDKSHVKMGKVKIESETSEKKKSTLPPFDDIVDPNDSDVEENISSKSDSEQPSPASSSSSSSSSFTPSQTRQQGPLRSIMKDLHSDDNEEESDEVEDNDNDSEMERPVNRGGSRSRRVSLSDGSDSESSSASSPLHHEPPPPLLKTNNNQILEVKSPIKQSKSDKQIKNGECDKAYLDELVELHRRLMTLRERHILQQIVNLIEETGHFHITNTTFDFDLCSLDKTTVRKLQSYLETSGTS
rRNA inh HTS: inhibitors of bacterial rRNA selective over humanized ribosomes; AID 720706; E. coli WT GFP vs humanized-ribosome RFP mutants, fluorescence, 24 h; stronger effect = lower value; DMSO median 0, no signal -100; hit rate 1.6% among 350,000; GFP signal change (wild-type ribosome), % (concentration not given with the values);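 active means significant combined selectivity score with lowered wild-type GFP, culture density cut under 30%, mutant RFP and density less affected; inactive means any of these conditions unmet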; further: one replicate is shown; some compounds called inactive have numbers as strong as hits
rRNA inh HTS OD600: also measured in rRNA inh HTS; calls as there; OD600 change, %; measured here: OD600 growth;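 optical density of the mix in the first replicate; 0 = DMSO median and -100 = no signal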
rRNA inh HTS RFP: recorded beside rRNA inh HTS, whose call it bears; RFP signal change, %; measured here: RFP humanized mutant strains;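 first replicate; 0 = DMSO median and -100 = no signal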
Active calls of the source: *; i = inactive; nt = no result given; & = joins results of further samples. Some of the compounds tested; the hit share may differ from the screen's.

Below each compound: FGF22 binding	MLL AF4-AF9 inh	rRNA inh HTS	rRNA inh HTS OD600	rRNA inh HTS RFP
C[C@@H]1CN([C@H](C)CO)C(=O)c2cccc(NC(=O)C3CCOCC3)c2O[C@@H]1CN(C)C(=O)Nc1ccccc1
    i	2.1	2	15	-1.2
O=C(C=Cc1ccccn1)c1ccccc1O
    i	6.4	-14	23	2.8
CC1(C(=O)NS(=O)(=O)c2ccc(F)cc2F)CCN1C(=O)c1ccccc1 (stereo not given)
    i	-2.0	3	16	-4.0
Cc1ncc(C(=O)Nc2ccccc2)[nH]1
    i	-47	13	18	3.4
Nc1[nH]c(C(=O)c2ccc(Cl)cc2)c(-c2ccc(Br)cc2)c1C(=O)c1c[nH]c2ccc(F)cc12
    nt	-9.7	-11	-34	4.1
CC1(Cc2ccc(Cl)cc2)C(=O)Nc2ccc(S(=O)(=O)NC3CCCCC3)cc21 (stereo not given)
    i	-3.1	-59	-77	-17
CO[C@H]1CN(C)C(=O)c2ccc(NC(=O)NC(C)C)cc2OC[C@H](C)N(C(=O)CC2CC2)C[C@@H]1C
    i	-2.7	1	2	1.0
Cn1cnc(S(=O)(=O)N2C[C@@H](O)COC[C@@H]3O[C@H](CC(=O)NC4Cc5ccccc5C4)CC[C@H]32)c1
    i	-3.0	3	20	1.9
C[C@H](CO)N1C[C@H](C)[C@H](CN(C)S(=O)(=O)c2ccc(F)cc2)Oc2ccc(NS(=O)(=O)c3ccc(F)cc3)cc2C1=O
    i	-1.0	1	-11	5.7
COc1ccc(C#Cc2ccc3c(c2)O[C@H](CN(C)C(=O)c2ccccn2)[C@H](C)CN([C@@H](C)CO)S3(=O)=O)cc1
    i	-10	0	-2	3.2
COc1ccc(S(=O)(=O)Nc2cccc3c2O[C@@H](CN(C)Cc2ccc(Oc4ccccc4)cc2)[C@H](C)CN([C@@H](C)CO)C3=O)cc1
    i	2.8	5	8	0.9
CC(=O)N1CCCCN2[C@@H](CO)[C@H](c3ccc(C#Cc4ccccc4F)cc3)[C@@H]2C1
    i	1.5	0	-22	4.0
Cn1cnc(S(=O)(=O)N2CC[C@@H]3[C@H](CO)Nc4ccc(C#Cc5ccccc5F)cc4[C@@H]32)c1
    i	2.6	-2	-7	2.2
C[C@@H]1CN([C@@H](C)CO)C(=O)c2cccc(NC(=O)Nc3ccc(C(F)(F)F)cc3)c2O[C@@H]1CN(C)Cc1ccc(C(F)(F)F)cc1
    i	-0.6	1	-3	0.1
Cc1noc(C)c1NC(=O)Nc1ccc2c(c1)C(=O)N([C@H](C)CO)C[C@@H](C)[C@H](CN(C)S(=O)(=O)c1cccs1)O2
    i	-2.8	1	8	-0.8
CCCNC(=O)[C@H]1[C@H](CO)[C@H]2Cn3c(ccc(-c4ccccc4)c3=O)[C@@H]1N2C(=O)Nc1ccccc1
    i	-12	-4	2	-0.4
CCCN1[C@H](C(=O)NCCOC)[C@@H](CO)[C@@H]2Cn3c(ccc(-c4cccc(C(=O)N(C)C)c4)c3=O)[C@@H]21
    i	-2.1	0	2	0.9
COc1ccc2c3c(n(C)c2c1)[C@H](CO)N(Cc1ccc(F)cc1)CC31CN(CC2CC2)C1
    i	4.0	0	2	-1.7
CCC(=O)Nc1ccc2c(c1)OC[C@@H](C)N(CC1CC1)C[C@@H](C)[C@H](OC)CN(C)C2=O
    i	-0.6	-2	-1	-2.7
COC(=O)C[C@H]1CC[C@@H]2[C@H](COc3ccc(NS(=O)(=O)c4ccc(C)cc4)cc3C(=O)N2C)O1
    i	-0.4	2	0	-1.3
CC(C)CC#Cc1cnc2c(c1)C(=O)N([C@@H](C)CO)C[C@H](C)[C@@H](CN(C)Cc1ccccc1F)O2
    i	6.5	-34	-64	14
CN1C[C@H](O)COC[C@@H]2O[C@@H](CC(=O)NC3CCC3)CC[C@H]21
    i	-2.3	0	0	-2.1
CCS(=O)(=O)Nc1ccc2c(c1)C(=O)N(C)[C@@H]1CC[C@H](CC(=O)N[C@H]3CCN(Cc4ccccc4)C3)O[C@@H]1CO2
    i	0.6	-1	5	-0.1
O=C(NCC[C@H]1CC[C@@H](NS(=O)(=O)c2cccc(F)c2)[C@H](CO)O1)C1CCCCC1
    i	-0.5	-2	1	0.5
COc1ccc(NC(=O)N(C)C[C@@H]2OCCCC[C@H](C)Oc3ccc(NS(=O)(=O)c4ccc(OC)cc4)cc3C(=O)N([C@H](C)CO)C[C@H]2C)cc1
    i	-0.2	-4	-1	-1.7
O=C(C[C@H]1CC[C@H](NC(=O)NC2CCCCC2)[C@@H](CO)O1)NCc1ccccc1
    i	-0.9	-9	-8	0.9
C[C@@H]1CN([C@@H](C)CO)C(=O)Cc2cc(NC(=O)Nc3ccc(F)cc3)ccc2O[C@H]1CN(C)C(=O)Nc1ccc2c(c1)OCO2
    i	1.3	-2	-5	-2.1
Cc1cc(C(=O)Nc2cccc3c2O[C@H](CN(C)S(=O)(=O)c2ccccc2)[C@H](C)CN([C@@H](C)CO)C3=O)n(C)n1
    i	-1.7	-10	-12	-1.7
C(=Nn1cnnc1)c1ccc2c(c1)CCC2
    i	1.5	6	-1	3.0
CN(Cc1cnn(-c2ccc(F)cc2)c1)C(=O)[C@H]1O[C@@H](n2cnc3c(N)ncnc32)[C@H](O)[C@@H]1O
    i	-5.2	1	-1	-2.6

More records:
Below each compound: FGF22 binding	MLL AF4-AF9 inh	rRNA inh HTS	rRNA inh HTS OD600	rRNA inh HTS RFP
O=C(COC(=O)c1ccccc1)c1ccc2c(c1)OCCO2
    i	-6.3	-12	-30	-2.1
COC(=O)c1cc2c(c3c4cc(F)ccc4n(S(=O)(=O)c4cccc(C)c4)c13)C(=O)N(Cc1ccccc1OC)C2
    i	1.0	4	9	1.8
COc1ccc2c3c(n(C)c2c1)[C@@H](CO)N(Cc1cc(F)ccc1F)CC31CCN(C(C)=O)CC1
    i	6.8	-1	-1	-1.1
COCC#Cc1ccc2c(c1)O[C@@H](CN(C)S(C)(=O)=O)[C@@H](C)CN([C@@H](C)CO)S2(=O)=O
    i	-3.0	-3	0	-3.0
CCNC(=O)C[C@@H]1CC[C@@H]2[C@H](COc3ccc(NC(=O)c4cccc(OC)c4)cc3C(=O)N2C)O1
    i	-2.9	-1	-1	-2.4
C[C@@H]1CN([C@H](C)CO)C(=O)c2cc(NC(=O)CCCN(C)C)ccc2O[C@@H]1CN(C)S(=O)(=O)c1cccs1
    i	0.8	4	0	-1.7
CC1CCCCC12NC(=O)N(CC(=O)Nc1cccc(S(=O)(=O)N3CCCCC3)c1)C2=O (stereo not given)
    i	2.1	13	4	-0.2
C[C@H](CO)N1C[C@H](C)[C@H](CN(C)Cc2ccc(Oc3ccccc3)cc2)Oc2ccc(N(C)C)cc2C1=O
    i	52*	-6	-43	1.0
C[C@H](CO)N1C[C@H](C)[C@@H](CN(C)Cc2ccncc2)Oc2cc(Br)ccc2S1(=O)=O
    i	-2.0	-10	-37	-12
O=C(C[C@@H]1CC[C@H](NC(=O)c2ccc(F)cc2)[C@H](CO)O1)NCCc1ccncc1
    i	-1.8	2	13	-3.3
CCCC#Cc1ccc([C@H]2[C@H](CO)N3CCCCN(C(=O)NC4CCCC4)C[C@@H]23)cc1
    i	-0.7	-61	-73	-12
C[C@@H]1CN([C@H](C)CO)C(=O)Cc2cc(N(C)C)ccc2O[C@@H]1CN(C)CC1CC1
    i	1.0	1	3	1.0
C[C@@H]1CCCCO[C@H](CN(C)S(=O)(=O)c2cn(C)cn2)[C@@H](C)CN([C@H](C)CO)C(=O)c2cc(NC(=O)CCCN(C)C)ccc2O1
    i	-0.1&-1.5	16&1	16&3	3.0&-3.3
Cc1noc(C)c1NC(=O)Nc1ccc2c(c1)C(=O)N([C@@H](C)CO)C[C@H](C)[C@H](CN(C)C(=O)Nc1c(C)noc1C)O2
    i	0.6	5	3	-3.8
NC(=O)c1ncn([C@@H]2O[C@H](CNCc3cccc4c3sc3ccccc34)[C@@H](O)[C@H]2O)n1
    i	-0.7	2	3	4.2
COc1ccc(NC(=O)N[C@H]2C=C[C@H](CC(=O)NC3CCC3)O[C@H]2CO)cc1
    i	-2.1	-2	12	-0.3
C[C@H]1COc2cc(N3CCN(Cc4ccccc4F)CC3)ccc2S(=O)(=O)N1
    i	-1.7	-4	-2	2.7
C[C@H](CO)N1C[C@H](C)[C@H](CN(C)S(C)(=O)=O)Oc2ccc(NC(=O)C3CC3)cc2CC1=O
    i	-1.9	-1	-3	0.1
C[C@H]1CN([C@@H](C)CO)C(=O)c2cc(NC(=O)CCC(F)(F)F)ccc2O[C@H]1CN(C)Cc1ccc(Cl)c(Cl)c1
    i	-0.1	-6	-3	4.4
CNC[C@H]1OCCCC[C@@H](C)Oc2ccc(NC(=O)Nc3ccc(C(F)(F)F)cc3)cc2C(=O)N([C@@H](C)CO)C[C@H]1C
    i	7.6	-59	-79	-18
Cc1ccc(NC(=O)c2cc(S(=O)(=O)N3CCCCC3)ccc2N2CCOCC2)c(C)c1
    i	-0.8	1	9	0.8
CCCCCCCCN1C(=O)[C@@H](CC(=O)NCc2cccc(C(F)(F)F)c2)C[C@@]2(C(=O)OC)C1=C[C@H](C1CCCC1)O[C@@H]2C
    i	-1.7	-2	-5	2.3
C/C=C/c1ccc([C@@H]2[C@@H](CO)N3CCCCN(C(=O)Nc4ccc(F)cc4)C[C@@H]23)cc1
    i	-1.9	-32	-67	4.7
C[C@H](CO)N1C[C@H](C)[C@@H](CN(C)S(=O)(=O)c2cccs2)Oc2c(NC(=O)c3cnccn3)cccc2C1=O
    i	-3.8	1	10	0.5
CCCN1C[C@H](C)[C@H](OC)CN(C)C(=O)c2ccc(NC(=O)C3CC3)cc2OC[C@H]1C
    i	-1.8	2	8	-2.2
COCC#Cc1ccc([C@@H]2[C@@H](CO)N3CCCCN(Cc4ccncc4)C[C@H]23)cc1
    i	-0.6	4	22	-1.0
CNC[C@H]1Oc2c(NS(=O)(=O)c3ccc(F)cc3)cccc2C(=O)N([C@H](C)CO)C[C@H]1C
    i	-1.6	5	5	-1.3
CCCNC(=O)C1(C)CCN1C(=O)Cc1ccc(C(C)C)cc1 (stereo not given)
    i	-0.7	1	-7	1.1
CC(=O)Nc1c([N+](=O)[O-])cc2c3c(cccc13)CC2
    i	-0.7	7	9	8.9
Cc1ccc(S(=O)(=O)Nc2ccc3c(c2)C(=O)N([C@H](C)CO)C[C@H](C)[C@@H](CN(C)S(=O)(=O)c2ccc(F)cc2)OCCCC[C@H](C)O3)cc1
    i	-1.3	2	9	2.4

Compound profiles, as listed above. Screens in order: FGF22 binding	MLL AF4-AF9 inh	rRNA inh HTS	rRNA inh HTS OD600	rRNA inh HTS RFP
COc1ccc(NC(=O)N[C@H]2C=C[C@H](CC(=O)NC3CCC3)O[C@H]2CO)cc1 is listed as i	-2.1	-2	12	-0.3
NC(=O)c1ncn([C@@H]2O[C@H](CNCc3cccc4c3sc3ccccc34)[C@@H](O)[C@H]2O)n1 is listed as i	-0.7	2	3	4.2
O=C(COC(=O)c1ccccc1)c1ccc2c(c1)OCCO2 is listed as i	-6.3	-12	-30	-2.1
COc1ccc2c3c(n(C)c2c1)[C@@H](CO)N(Cc1cc(F)ccc1F)CC31CCN(C(C)=O)CC1 is listed as i	6.8	-1	-1	-1.1
C[C@H](CO)N1C[C@H](C)[C@@H](CN(C)S(=O)(=O)c2cccs2)Oc2c(NC(=O)c3cnccn3)cccc2C1=O is listed as i	-3.8	1	10	0.5

Returning to the listing with the 2 entries that preceded the break.
Below each compound: FGF22 binding	MLL AF4-AF9 inh	rRNA inh HTS	rRNA inh HTS OD600	rRNA inh HTS RFP
CC(=O)Nc1c([N+](=O)[O-])cc2c3c(cccc13)CC2
    i	-0.7	7	9	8.9
Cc1ccc(S(=O)(=O)Nc2ccc3c(c2)C(=O)N([C@H](C)CO)C[C@H](C)[C@@H](CN(C)S(=O)(=O)c2ccc(F)cc2)OCCCC[C@H](C)O3)cc1
    i	-1.3	2	9	2.4
CO[C@H]1CN(C)C(=O)c2ccc(NS(=O)(=O)c3ccc(F)cc3)cc2OC[C@H](C)NC[C@@H]1C
    i	-0.9	2	-5	-0.1
CCOC(=O)CC1(O)CSc2nc(N)cc(=O)n21 (stereo not given)
    i	-5.1	10	17	5.0
C[C@@H]1CN([C@@H](C)CO)C(=O)c2cc(NS(=O)(=O)c3cccs3)ccc2O[C@@H](C)CCCCO[C@@H]1CN(C)S(=O)(=O)c1ccc(F)cc1
    i	0.3	-4	-5	-3.9
CC(=O)Nc1ccc(NC(=O)CSc2nnc(N)n2-c2ccccc2)cc1
    i	-3.4	20	18	1.1
C[C@H]1CN([C@@H](C)CO)C(=O)Cc2cc(NS(=O)(=O)c3ccccc3)ccc2O[C@@H]1CN(C)S(=O)(=O)c1cccs1
    i	2.8	-3	-2	0.1
CN1CCN(C2CN(Cc3ccc(F)cc3)S(=O)(=O)C2)CC1 (stereo not given)
    i	0.2	19	16	-1.9
COc1cccc(-c2cnc3c(c2)C(=O)N([C@H](C)CO)C[C@@H](C)[C@@H](CN(C)CC2CCOCC2)O3)c1
    i	-5.9	1	4	-3.9
